# Sfp PPTase inh – blocks B. subtilis Sfp PPTase activity | 3.5% of 310,000 active | Biochemical Sfp PPTase activity, qHTS | Potency, µM, inactives show max response, negative = inhibition, hits mostly inhibitors | AID 1490 | Q9F4F7; active = well fitted inhibition curve with a large enough effect; inconclusive = small, poorly fitted or top-dose-only effect, or another doubt; inactive = no such curve, though single readings can be large or run the other way;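 also: the enzyme is Sfp with the accession as filed and its product quenches rhodamine fluorescence; potency is read from the fitted curve at half-maximal effect; 0% = enzyme reaction without inhibitor and -100% = no enzyme wells; top concentration of the series not given in the record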
#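 After 15 min at room temperature with compound, 15 nM Sfp received 5 uM rhodamine-CoA plus 12.5 uM BHQ-2-ybbR (50 mM Hepes pH 7.6, 10 mM MgCl2). Rate came from the fluorescence difference over 30 min, ex 525/em 598 nm.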
# Menin-MLL FL inh – inhibitors of human menin-MLL interaction, wild-type MLL peptide; Fluorescence polarization, fluorescein-MLL peptide displacement from menin; FP activity change, % at 61.4 µM; 290,000 tested, under 10 active; inconclusive = falling polarisation curve, or a change in total fluorescence; inactive = total fluorescence flat and polarisation flat or rising; no compound was filed as active; the % refers to the polarisation; negative = inhibition;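 also: % of control where 0% means no effect; inhibitors lower the polarisation; unlabelled MLL peptide was the positive control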
# ClpP mod – qHTS Assay for Activators of ClpP; Potency, µM (highest dose often 57.5 µM), without a hit: at the highest dose activity change, negative = active; purified B. subtilis ClpP, FRET peptide cleavage, 20 min; 1.9% of 340,000 active; active = well fitted falling curve with a large enough effect; inconclusive = small, poorly fitted or top-dose-only effect; inactive = no such curve, though single readings can be large or run the other way; also: potency is read from the fitted curve at half-maximal effect; the source files actives as falling curves though it sought activators and does not explain the sign; nearly all actives have a fitted effect of over 65% in size; many hits overshoot -100%
# Target sequence (P80244 whole entry, looked up): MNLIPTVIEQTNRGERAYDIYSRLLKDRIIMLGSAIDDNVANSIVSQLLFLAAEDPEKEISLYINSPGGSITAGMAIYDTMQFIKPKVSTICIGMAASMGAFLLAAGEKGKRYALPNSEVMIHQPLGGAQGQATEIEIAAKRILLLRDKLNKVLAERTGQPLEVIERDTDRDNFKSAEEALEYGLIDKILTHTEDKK
#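 Buffer: 100 mM Tris/HCl pH8, 100 mM KCl, 0.05% low protease BSA, 2.5% glycerol, 0.01% Tween-20. ClpP 10 microg/mL final; 20 min RT; delta FRET normalized to ADEP and DMSO controls.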
# CtBP-E1A inh – blocks the CtBP interaction with E1A | activity change, % (concentration not given with the values) | AID 651724 | 0.49% of 340,000 active | AlphaScreen GST-E1A/His-CtBP binding, 1536-well; stronger effect = lower value; control for the full effect not named in the record; in the data active means activity change below about -65%; inconclusive means about -30% to -65%; inactive means above about -30%; also: % is scaled to controls: 0 for no effect and ±100 for the full control effect
#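 Protein mix (5X: 125 nM each GST-E1A, His-CtBP) was incubated with pinned compound 2 h at 37 deg C in dark, in 50 mM Tris pH 8.0 buffer with 300 mM NaCl. Glutathione donor and nickel acceptor beads followed; AlphaScreen signal read after 1 h.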
# TRPV1 PAM – potentiators of human vanilloid receptor 1 (TRPV1); Q8NER1; TRPV1-expressing cells, Fluo-8 calcium influx, capsaicin EC20 potentiation; host cell line not named in the record; control for the full effect not named in the record; potentiation, % at 8.33 µM; 0.02% of 320,000 active; AID 540277; active means potentiation above 80%; inconclusive means 30% to 80%; inactive means below 30%; also: 0% is about no effect
# Target sequence (Q8NER1 whole entry, looked up): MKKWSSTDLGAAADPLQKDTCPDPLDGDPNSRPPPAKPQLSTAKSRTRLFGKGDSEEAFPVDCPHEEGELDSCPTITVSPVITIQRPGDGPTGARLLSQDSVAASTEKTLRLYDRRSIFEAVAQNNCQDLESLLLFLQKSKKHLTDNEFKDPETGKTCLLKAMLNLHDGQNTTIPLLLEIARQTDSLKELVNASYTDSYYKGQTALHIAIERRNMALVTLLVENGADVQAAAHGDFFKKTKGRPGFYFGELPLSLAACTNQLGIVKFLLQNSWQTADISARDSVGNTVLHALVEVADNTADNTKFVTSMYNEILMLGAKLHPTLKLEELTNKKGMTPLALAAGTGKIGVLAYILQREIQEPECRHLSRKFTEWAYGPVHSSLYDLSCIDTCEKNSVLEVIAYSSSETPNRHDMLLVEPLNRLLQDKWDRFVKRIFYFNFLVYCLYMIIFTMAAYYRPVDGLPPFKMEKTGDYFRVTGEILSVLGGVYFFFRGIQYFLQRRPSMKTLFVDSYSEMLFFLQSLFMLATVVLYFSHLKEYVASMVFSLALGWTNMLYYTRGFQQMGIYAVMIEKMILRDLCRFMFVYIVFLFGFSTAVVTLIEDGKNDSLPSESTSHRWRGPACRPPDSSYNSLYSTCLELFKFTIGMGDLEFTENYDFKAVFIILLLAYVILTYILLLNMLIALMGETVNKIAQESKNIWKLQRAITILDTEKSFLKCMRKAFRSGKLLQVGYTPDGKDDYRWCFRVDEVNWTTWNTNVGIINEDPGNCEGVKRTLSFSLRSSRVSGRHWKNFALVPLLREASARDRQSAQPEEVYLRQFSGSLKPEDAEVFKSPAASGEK
#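 Cells expressing TRPV1 were dye-loaded with Fluo-8 and read kinetically: 10 s baseline, 3 min after compound (agonist portion), then 2 min after EC20 capsaicin (allosteric enhancer portion). Calcium-bound dye fluorescence at 480/520 nm.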
# gsp agonist – gsp mutant agonism; Potency, µM (highest dose often 76.9 µM), for the others: at the top dose activation (cAMP increase), hits mostly activators; 0.13% of 340,000 active; gsp mutant cells, cAMP HTRF, 30 min; control for the full effect not named in the record; active = well fitted activation curve with a large enough effect; inconclusive = small, poorly fitted or top-dose-only effect, or another doubt; inactive = no such curve, though single readings can be large or run the other way; cell line not stated here;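 also: phosphodiesterase inhibitor Ro 20-1724 added with compounds to block cAMP breakdown; potency is read from the fitted curve at half-maximal effect; nearly all actives have a fitted effect of over 60% in size; about a fifth of the inactives were tested at one dose only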
#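 Cells in DMEM/10% FBS with G418 were pretreated with compounds in DMSO plus […] (300 uM stock) for 30 min at 37C. cAMP was measured by HTRF (cAMP-d2 plus anti-cAMP antibody-K) after 30 min at room temperature.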
# gsp antag – antagonizes gsp, the McCune-Albright syndrome mutation; gsp-mutant cells, cAMP HTRF, 30 min; control for the full effect not named in the record; Potency, µM (titrated, usually from 76.9 µM), without a hit: at the top dose activity change, negative = inhibition, actives largely listed as inhibitors; 0.4% of 340,000 active; active = falling curve of any shape with a large fitted effect; inconclusive = falling curve, mostly with a smaller effect; inactive = flat or rising curve; cell line not stated here;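 also: intracellular cAMP measured with PDE inhibitor Ro 20-1724 present during compound exposure; potency is read from the fitted curve at half-maximal effect; % is scaled to controls: 0 for no effect and ±100 for the full control effect; nearly all actives have a fitted effect of over 65% in size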
#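 G418-selected cells were plated in DMEM/10% FBS for 16-24 h at 37C, then treated with compounds plus the PDE inhibitor […] (300 uM solution added) for 30 min at 37C. Intracellular cAMP was measured by HTRF after 30 min lysis at room temperature.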
# * hit, by the source's call; ? = inconclusive; . = not tested or not shown; & = joins results of further samples; [ ] = remark or other dose.
SMILES,Sfp PPTase inh,Menin-MLL FL inh,ClpP mod,CtBP-E1A inh,TRPV1 PAM,gsp agonist,gsp antag
CC(C)CC1C(=O)N(Cc2cn(CCC3OCCO3)nn2)CCS(=O)(=O)N1Cc1ccc(-c2ccc(Cl)c(Cl)c2)cc1 (stereo not drawn),.,.,-1.4%,2,.,-14%,.
CC(=O)c1ccc(NC(=O)CN2CCC(C(=O)c3ccc4c(c3)OCCO4)CC2)cc1,11%,1.7,.,-3,-10,-25%,?
COC(=O)c1sc(C(F)(F)F)c(-c2ccccc2)c1S(=O)(=O)N1CCCC1,2%,5.0,-5.0%,19,-26,9%[15.4 µM],?
CCOc1ccccc1NC(=O)CSc1nnc(CNC(=O)c2cccs2)o1,1%,.,-0.4%,0,?,-9%,0%
Cc1ccc(NC(=O)CN2C(=O)S/C(=C\C(=O)Nc3ccc(Cl)cc3)C2=O)cc1,-16%,8.0,.,6,8,6%[15.4 µM],5%
Cc1ccc(S(=O)(=O)NCCN2CCNC2=O)cc1,16%,-8.1,0.5%,.,-18,4%,6%
O=C(COC(=O)c1cncc(Br)c1)Nc1nc(-c2ccc(F)cc2)cs1,-2%,4.2,.,5,.,-2%[15.4 µM],5%
CN(C)S(=O)(=O)c1cccc(NC(=S)Nc2ccc3cn[nH]c3c2)c1,-18%,3.1,.,3,4,3%[15.4 µM],0%
Cc1cccc2sc(NC(=O)[C@@H]3CCCN3C(=O)c3cccs3)nc12,8%,2.1,-1.4%,-3,4,9%,-1%
CCn1c(SCC(=O)N2CCC(C)CC2)nc2c(c1=O)SCC2,4%,-0.1,-1.0%,2,-2,24%,-23%
COc1ccc(CC(=O)Nc2ccccc2N2CCOCC2)cc1OC,17%,-2.5,.,0,-6,-1%[15.4 µM],.
NC(=O)Cc1ccc(C(=O)c2ccc(F)cc2)s1,10%,-2.9,.,9,3,-1%,1%
CNC[C@@H]1OCc2cnnn2CCCC(=O)N([C@H](C)CO)C[C@H]1C,.,.,2.1%,7,.,6%,.
Cc1c(-c2ccc(Br)cc2)[n+](=O)c2c(n1[O-])CCCCC2,-1%,3.3,-0.3%,-4,9,15%[15.4 µM],7%
Cc1cccc(N2C(=O)N3[C@H](c4ccc(Cl)cc4)[C@@H]4C(=O)N(C5CCCCC5)C(=O)[C@@H]4[C@]3(Cc3ccc(Cl)cc3)C2=O)c1,14%,4.0,-4.0%,?,6,.,-2%
CN(C)c1ccc(-c2nnn(CC(=O)Nc3ccccc3N3CCOCC3)n2)cc1,-1%,-1.4,-0.8%,-11,5,0%,-1%
O=C(Nc1ccccc1Cl)O/N=C/c1ccncc1,.,.,-1.4%,7,.,-61%[inhibitor],8%
O=C(O)c1ccc(Oc2nc3ccccc3s2)cc1,.,.,-1.7%,5,.,18%,-18%
O=C(NNC(=O)c1cc2ccccc2oc1=O)c1ccccc1,50µM*,0.4,.,6,4,38%,2%
CCOC(=O)c1cc2c(OC)ccc(OC)c2n1CC(=O)c1ccccc1,8%,0.8,-8.7%,.,-1,-1%,-18%

# Compound profiles, as listed above:
# Results for `CC(=O)c1ccc(NC(=O)CN2CCC(C(=O)c3ccc4c(c3)OCCO4)CC2)cc1` : Sfp PPTase inh: 11%; Menin-MLL FL inh: 1.7; ClpP mod: .; CtBP-E1A inh: -3; TRPV1 PAM: -10; gsp agonist: -25%; gsp antag: ?
# Results for `O=C(COC(=O)c1cncc(Br)c1)Nc1nc(-c2ccc(F)cc2)cs1` : Sfp PPTase inh: -2%; Menin-MLL FL inh: 4.2; ClpP mod: .; CtBP-E1A inh: 5; TRPV1 PAM: .; gsp agonist: -2%[15.4 µM]; gsp antag: 5%
# Results for `Cc1c(-c2ccc(Br)cc2)[n+](=O)c2c(n1[O-])CCCCC2` : Sfp PPTase inh: -1%; Menin-MLL FL inh: 3.3; ClpP mod: -0.3%; CtBP-E1A inh: -4; TRPV1 PAM: 9; gsp agonist: 15%[15.4 µM]; gsp antag: 7%

# Additional entries:
SMILES,Sfp PPTase inh,Menin-MLL FL inh,ClpP mod,CtBP-E1A inh,TRPV1 PAM,gsp agonist,gsp antag
CCOC(=O)CC(NS(=O)(=O)c1ccc(NC(C)=O)cc1)c1ccc(OCC)cc1 (stereo not drawn),8%,-1.3,-2.8%,-1,7,8%,-4%
C[C@@H]1CN([C@H](C)CO)C(=O)CCCn2nncc2CO[C@H]1CN(C)C(=O)NC1CCCCC1,.,.,0.5%,6,.,-64%[inhibitor],.
COc1ccc(OC)c(-c2csc(NC(=O)COC(=O)c3ccc(NC(=O)CC#N)cc3)n2)c1,.,.,-5.6%,-17,-10,30%,-8%
O=C(NNC(=O)C1CCN(S(=O)(=O)c2ccc(Cl)cc2)CC1)c1ccc(Cl)cc1,13%,1.0,-1.8%,2,.,9%,3%
Cc1ccccc1C1C(C#N)=C2NC(=O)c3c(sc4c3CCCCC4)N2C2=C1C(=O)CC(C)(C)C2 (stereo not drawn),3%,?,.,.,6,.,.
Cc1ccc(S(=O)(=O)CCC(=O)N(Cc2nnc(-c3ccc(Cl)cc3)o2)C2CC2)cc1,.,.,-11%,.,29,20%,-15%
CSCCC(C)N1CCC(Oc2ccc(C(=O)N3CCCC3)cc2)CC1 (stereo not drawn),14%,.,-1.4%,15,1,-52%[inhibitor],14%
CC(=O)N1CCN(c2ccc(Oc3nc(-c4ccccc4)nc4ccccc34)cc2)CC1,.,.,-0.6%,4,.,-4%,-7%
Cc1ccc(NS(=O)(=O)c2ccc(C)c(C(=O)N3CCN(C)CC3)c2)cc1,3%,2.2,-0.5%,9,-1,9%,1%
CCC(CNC(=O)c1c(C)nn(-c2ccccc2)c1Cl)c1ccccc1 (stereo not drawn),6%,6.9,.,0,-19,-26%[15.4 µM],-15%
CCCn1c(N)c(N(CCOC)C(=O)C2CCCC2)c(=O)[nH]c1=O,.,.,-0.4%,-2,2,2%,6%
O=[N+]([O-])c1cc(NCCO)c(N2CCCCCC2)c2nonc12,-1%,-1.0,1.0%,4,4,15%,-13%
CC(=O)c1ccc(Oc2ccc(C(C)=O)cc2)cc1,17%,3.2,1.1%,7,-21,-20%,9%
COC(=O)c1ccc(COc2ccccc2/C=C(\C#N)C(=O)Nc2ccc(C)cc2C)cc1,14%,-1.0,.,11,-10,0%,12%
O=C(NCc1ccco1)C12CC3CC(CC(C3)C1)C2,4%,-0.7,0.8%,1,14,-75%[inhibitor],2%
Cc1ccc(NC(=O)COc2coc(CN3CCc4ccccc43)cc2=O)c(C)c1,.,.,-0.7%,-2,14,-25%,1%
CC1CCN(C2=C(NS(=O)(=O)c3ccc(Cl)cc3)C(=O)c3ccccc3C2=O)CC1,-2%,7.0,.,?,3,-22%,1%
O=c1cc(Cl)[nH]c(=O)n1Cc1ccc(F)cc1,13%,.,0.9%,.,10,15%,4%
CN(C)c1ccccc1C(=O)N1CCCC(Nc2ccc(F)cc2)C1 (stereo not drawn),12%,0.2,0.6%,3,3,-15%,2%
COc1ccc(NC(=O)CCC(=O)N/N=C/c2cccnc2)cc1,10%,.,-1.8%,.,-11,27%,7%
CC(Oc1ccc(Br)cc1)C(=O)NC1CCN(Cc2ccccc2)CC1 (stereo not drawn),.,.,-2.4%,-2,-12,?,6%
COc1ccc(NC(=O)CN(C)CC(=O)NCCc2ccc(F)cc2)cc1,.,.,-1.8%,3,27,?,1%
Cc1cccc(CS(=O)(=O)c2ncc(Cl)c(C(=O)Nc3c(C)cccc3C)n2)c1,-24%,.,1.8%,-13,2,7%,-14%
CCCCN(C)S(=O)(=O)c1ccc(C(=O)N(CCN(C)C)c2nc3ccc(C)cc3s2)cc1,1%,-4.8,-1.8%,.,-12,20%,70%[activator]
CC(Nc1cc(N2CCNCC2)ccc1[N+](=O)[O-])c1ccccc1 (stereo not drawn),-13%,.,28µM*,-7,-13,-5%,2%
CCOc1ccc(CN(C)C(=O)[C@H](C)NC(=O)c2ccco2)cc1OC,14%,.,.,-12,5,-6%[15.4 µM],11%
COc1ccc(C2=NOC(Cn3nc(-c4ccccc4)cc3C(=O)NCc3ccccc3OC)C2)cc1 (stereo not drawn),.,.,-10.0%,2,.,.,-6%
COc1cc(/C=N/NC(=O)c2ccncc2)ccc1O,3%&-5%,-1.4&-1.4,1.7%&1.5%,-8&-3,-18&1,.,-7%&-4%
COc1ccc(N2CCN(CCCNC(=O)C(=O)c3c[nH]c4ccccc34)CC2)cc1,-1%,-2.4,0.9%,-27,1,-55%[inhibitor],-9%
Cc1onc(-c2c(F)cccc2Cl)c1C(=O)Nc1nccs1,11%,-2.2,.,-12,-2,2%,-9%
C(=N\NCc1ccccc1)/c1ccc2ncccc2c1,13%,1.6,-0.5%,.,-12,?,6%
COc1ccccc1CC(NC(C)=O)C(=O)NC1CCN(C(=O)NCc2ccccc2)CC1 (stereo not drawn),10%,-4.0,.,0,-6,7%[15.4 µM],10%
CCC(=O)NC(=S)Nc1ccc(NC(=S)NC(=O)c2ccccc2)cc1,-29%,0.5,0.3%,.,9,-40%[inhibitor],5%
Cc1oc(-c2cccs2)nc1CS(=O)CC(=O)NCCc1ccccc1 (stereo not drawn),-9%,1.6,-3.6%,-1,-8,?,2%
O=C(Cc1ccccc1)NCC(=O)OC(c1ccccc1)c1ccccc1,6%,-3.1,.,-2,-1,-3%[15.4 µM],-3%
CC(C)C1C(C#N)=C(N)Oc2n[nH]c(-c3ccc4ccccc4c3)c21 (stereo not drawn),8%,2.6,0.9%,-10,-10,-25%,2%
COc1ccc(CCN(C)C(=O)CSc2nccn2C)cc1OC,-11%,2.6,0.9%,7,4,-16%,4%
Cc1cc(NC(=O)COC(=O)[C@@H]2CCCN2C(=O)c2cccs2)no1,.,.,.,0,.,?,-6%
O=C(Cc1ccccc1[N+](=O)[O-])N1CCOCC1,6%,0.7,-1.2%,-9,14,-12%,10%

# Screening results: PubChem, National Center for Advancing Translational Sciences (NCATS)
